AID504770 – E. coli YBA685 growth inhibition, screen for V. cholerae RctB inhibitors | E. coli YBA685 rctB-dependent plasmid, OD600 growth, 3 h; hits give low values | z-score (test concentration not listed) | 130,000 tested, 0.27% active | AID 504770;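 active = z-score under -2 on both plates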;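 note: wells of about 30 µL received 100 nL stock; score is relative to mean and SD of the test wells; the first replicate is given; strong numbers were not always called active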
Ba CapD inh – inhibitors of Bacillus anthracis CapD enzyme; z-score (test concentration not listed); 140,000 tested, 0.23% active; purified CapD enzyme, fluorescence intensity read-out; hits give low values; some hits fall short of the stated cut; AID 492967;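 active = z-score under -4 in either of two replicates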;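 note: stock transfer was 100 nL into about 40 µL; score is relative to mean and spread of the plate; one replicate is shown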
Starred values were filed as active, the others as inactive; . = not tested or not shown; & = joins results of further samples.

Order of results – AID504770	Ba CapD inh
CCOC(=O)Cn1c(=N)n(Cc2ccccc2F)c2ccccc21
    -0.2	0.38
CCOc1ccc(-c2nc3ccc(C)cc3[nH]2)cc1
    1.15	31.7
COc1ccc(-c2cc(C(F)(F)F)n3nc(C(=O)N4CCCC4)c(Cl)c3n2)cc1OC
    .	0.21
COc1cc2ccccc2cc1C(=O)NCC(F)(F)F
    1.05	.
c1ccc(-c2cc(N3CCOCC3)n3cnnc3n2)cc1
    0.05	-0.79
COC(=O)c1cc(Br)ccc1NC(=O)c1cc2ccccc2oc1=O
    0.25	0.175
COc1ccc(C(=O)Nc2ccc3nc(N4CCN(c5ncccn5)CC4)cc(C)c3c2)c(OC)c1
    .	0.38
CCOC(=CNc1ccc2nsnc2c1)OCC
    0.25	0.11
CC1=[N+]([O-])C(C)(C)C(c2ccc(Cl)cc2)=[N+]1[O-]
    -0.2	-0.775
CCn1c(=N)n(CC(=O)c2ccc(Br)cc2)c2ccccc21
    -0.45	0.41
Brc1csc(CNCCc2ccco2)c1
    -0.3	.
CCc1nnc(NC(=O)Cc2ccsc2)s1
    0.05	.
c1ccc2nc3c(nc2c1)c1ccccc1n3CN1CCCCC1
    .	-0.865
COc1cc(CC/C(C)=N\O)ccc1OCc1ccc(Cl)cc1Cl
    .	-0.045
CC(C)c1ccc(-n2cccc2)cc1
    2.1	-0.29
Cc1nn(-c2ccccc2)nc1C(=O)Nc1nnc(C(F)(F)F)s1
    .	0.81
C/C(=N\OC(=O)c1cccs1)c1cc(C(C)(C)C)cc2c1CCC2(C)C
    .	0.445
O=C1CC(Nc2c[nH]c(=O)[nH]c2=O)C(=O)N1c1ccc(Br)cc1 (centres undefined)
    2.15	-0.095
CN(NS(=O)(=O)c1ccccc1)c1nc2ccccc2nc1C(F)(F)F
    .	-0.935
O=C(O)CCc1ccc2c(c1)OCCO2
    -0.3	.
COc1ccc(OC)c(NC(=O)CSc2nc3ccccc3nc2N2CCCC2)c1
    0.8	0.59
COC(=O)CSc1sc(=S)sc1SCC[n+]1ccccc1
    0.1	-1.44
O=C(CC1(O)C(=O)N(Cc2cccc(F)c2)c2ccccc21)c1ccco1 (centres undefined)
    0.8	-0.31
COc1ccc(NC(C)=O)cc1C#N
    -0.85	1.84
O=C(COC(=O)Cn1cnc2ccccc2c1=O)NC12CC3CC(CC(C3)C1)C2
    0.35	.
COc1ccc(C(=O)c2sc3nc4c(c(-c5ccco5)c3c2N)CCCC4)cc1
    .	-0.98
O=C(Nc1ccc2c(c1)S(=O)(=O)c1cc(NC(=O)c3cccs3)ccc1-2)c1cccs1
    .	-0.14
COc1ccc(C2C(C(=O)NCc3ccc(F)cc3)CCC(=O)N2c2ccc3c(c2)OCO3)cc1 (centres undefined)
    1.15	0.53
Cc1ccccc1/C=N/NC(N)=S
    0.5	-0.15
Cc1csc(SCC(=O)NCc2cccs2)n1
    -0.35	.

Six entries out of the list, ordered by SMILES length, smallest number first.
Order of results – AID504770	Ba CapD inh
COc1cc(CC/C(C)=N\O)ccc1OCc1ccc(Cl)cc1Cl
    .	-0.045
Cc1nn(-c2ccccc2)nc1C(=O)Nc1nnc(C(F)(F)F)s1
    .	0.81
O=C(CC1(O)C(=O)N(Cc2cccc(F)c2)c2ccccc21)c1ccco1 (centres undefined)
    0.8	-0.31
COc1ccc(C(=O)c2sc3nc4c(c(-c5ccco5)c3c2N)CCCC4)cc1
    .	-0.98
COc1ccc(-c2cc(C(F)(F)F)n3nc(C(=O)N4CCCC4)c(Cl)c3n2)cc1OC
    .	0.21
COc1ccc(C2C(C(=O)NCc3ccc(F)cc3)CCC(=O)N2c2ccc3c(c2)OCO3)cc1 (centres undefined)
    1.15	0.53

Other records follow.
Order of results – AID504770	Ba CapD inh
COc1ccc(-c2nc(SCC(=O)NC3CCCC3)c(-c3ccc(C)cc3)[nH]2)cc1
    0.75	-0.755
C=CCn1c(=S)sc2c(Sc3nc4ccccc4[nH]3)ncnc21
    0.75	1.23
O=c1[nH]c(-c2ccccn2)nc2c1CSCC2
    -0.2	-0.75
Cc1cc(C)c2c(n1)sc1c(=O)n(Cc3ccccc3Cl)nnc12
    -0.2	8.34
Cc1ccccc1N1C(=O)/C(=C/c2ccc(-c3cc(Cl)ccc3Cl)o2)C=C1c1ccccc1
    .	1
O=C(Nc1nc2ccccc2s1)C1CC(=O)N(c2ccccc2Cl)C1 (centres undefined)
    .	-0.175
O=C(OCC(=O)N1CCN(C(=O)COC(=O)c2ccncc2)CC1)c1ccncc1
    -2.95	.
COC(=O)c1cc(-c2ccccc2)n(CC(=O)O)c1C
    1.8	-0.67
CCN1C(c2ccccc2)C(C)C(=O)C(C)C1c1ccccc1 (centres undefined)
    -0.3	-0.155
Cc1cccc(C)c1NC(=S)N1CCCCC1CO (centres undefined)
    -0.45	.
CC(C)C(=O)c1cccs1
    -1.05	.
CC1(C)C2CCC1(C)C(NS(=O)(=O)c1ccc(Cl)cc1)C2 (centres undefined)
    -0.5	-0.795
Cc1noc(C)c1-c1nc(CSc2ccccc2)no1
    -0.35	-0.2
Cn1c(=O)oc2cc(S(=O)(=O)N3CCC(C(N)=O)CC3)ccc21
    1.45	-0.265
CC1(C)O[C@H]2OC[C@@H]3OC(C)(C)O[C@@H]3[C@H]2O1
    .	0.01
Cc1ccc(-n2nnc(-c3ccc(Cl)c(Cl)c3)n2)cc1
    .	0.315
O=C(c1ccccc1-c1ccccc1)N1CCN(CCN2CCOCC2)CC1
    .	0.28
Cn1cnnc1SC(C(=O)c1ccccc1)c1ccccc1 (centres undefined)
    -0.05	.
COC(=O)CN1C(=O)c2cccc3cccc1c23
    0.05	-0.305
N#Cc1cccc(N2C(=O)CCC2=O)c1
    -0.05	-1.25
CCc1ccc(NC(=O)N2CCc3cc(S(=O)(=O)N4CCC(C)CC4)ccc32)cc1
    -0.95	-0.1
Cc1ccsc1CNC(=O)c1ccc(Cl)cc1
    0.35	0.94
O=C(NCC1CCCO1)c1ccc(-n2ccc3ccccc32)s1 (centres undefined)
    -1.55	48.5
COc1ccc(CCn2c(=O)[nH]c3cc(C(=O)NCc4ccco4)ccc3c2=O)cc1OC
    -0.15	1.17
CC(C)(C)c1oc2cc(Br)c(O)cc2c1C(=O)O
    2.15	-0.01
CC1(C)C2CC=C(CCOC(=O)N3CCC(O)(c4ccc(Cl)cc4)CC3)C1C2 (centres undefined)
    .	0.145
CCNc1ccc(S(=O)(=O)C(F)(F)F)cc1NC(=O)CC#N
    0	.
COC(=O)c1cc(C)nc(Sc2ccccc2NC(=O)c2ccccc2)n1
    0.2	0.115
CCOC(=O)N1CC=C2C(C#N)=C(N)C(C#N)(C#N)C(CC)C2C1 (centres undefined)
    -0.1	.
COc1cc(/C=N/NC(=O)c2cc3ccccc3s2)ccc1OCc1ccccc1
    .	1.15
Cc1nn(-c2ccccc2)c2sc(C(=O)N/N=C/c3ccccc3)cc12
    1.2	.
COc1ccccc1CNC(=O)C(C)n1cccc1C(=O)c1ccccc1 (centres undefined)
    -0.15	-0.08
Fc1cccc(F)c1/C=N/n1cnnc1
    0.15	-0.12
O=C(NC(=S)NCC1CCCCC1)c1ccco1
    -0.75	.
O=c1[nH]nc(Sc2ncccc2C(F)(F)F)n1C1CCCCC1
    1.2	-0.745
COC(=O)C1CC(OCc2ccccc2)CN1C(=O)OCc1ccc(-c2ccccc2)cc1 (centres undefined)
    .	0.435
COc1cc(NC(=O)C(c2ccccc2)C2CCCC2)cc(C(F)(F)F)c1 (centres undefined)
    -0.75	0.4
Cn1c(CNC(=O)c2ccc(Cl)cc2)nnc1SCC(=O)N1CCc2ccccc2C1
    -0.15	.
O=C(NCc1cccs1)c1ccc2c(c1)N(Cc1ccccc1)C(=O)c1ccccc1S2
    0.6	-1.33
O=S(=O)(Cc1ccc(Cl)cc1)N1CCN(c2ncccn2)CC1
    0.5	-0.745
C[C@H](NS(=O)(=O)c1cccc2nsnc12)C(=O)Nc1cccc(F)c1
    0.7	.
O=C(COC(=O)C1CC2CCCC(C1)C2=O)c1ccc(CC(=O)N2CCOCC2)s1 (centres undefined)
    1.35	.
Cc1ccc(/C(C#N)=C/c2cccs2)cc1
    .	-1.38
CCOC(=O)c1cc(-c2ccc(F)cc2)n(CC(=O)N(C)Cc2ccccc2)c1C
    -0.1	-0.225
Cc1ccc(-c2nnn(CC(=O)NC(C)C)n2)cc1
    -0.1	.
C=CCn1c(=NC(=O)CCCC)sc2cccc(OC)c21
    -0.9	.
c1ccc2c(CN3CCNCC3)cccc2c1
    -0.9	0.05
CCCCNC(=O)CN1C(=O)c2ccccc2S1(=O)=O
    -0.95	0.74
COc1cccc(CC2(O)C(=O)Nc3ccccc32)c1 (centres undefined)
    0.15	-0.715
N#Cc1ccc(-c2ccc(O)cc2)cc1
    -0.85	35.6
CSc1n[nH]c(-c2cc(C(C)(C)C)oc2C)c1C#N
    -0.3	0.115
C=CCN=Cc1c(O)[nH]c2ccccc12
    -1.45	-2.55
O=C1CCS(=O)(=O)c2ccccc2N1Cc1ccccc1
    2	-0.485
CC1CCc2sc(NC(=O)c3ccc(N4C(=O)C5C6C=CC(C6)C5C4=O)cc3)c(C#N)c2C1 (centres undefined)
    .	-0.355
O=C(CCCn1c(=O)c2sccc2n(Cc2ccccc2)c1=O)NCc1ccccc1
    -0.5	0.19
C#CCN=Cc1c(O)[nH]c(=O)[nH]c1=O
    -0.65	.
CC1(C)Cn2c(nc(=O)c3c2NC(=O)C3(O)C(F)(F)F)S1 (centres undefined)
    -0.5	0.54
O=C(CNc1ncnc2ccccc12)NCCO
    0.05	-0.095
Cc1nn2c(c1-c1ccccc1)NC(C(F)(F)F)(C(F)(F)F)NC2=O
    -0.15	0.34
COc1cccc(C(=O)Nc2c3c(nc4ccccc24)CCCC3)c1
    0	38

Single values from the list.
Ba CapD inh result of `O=C1CCS(=O)(=O)c2ccccc2N1Cc1ccccc1` → -0.485
Ba CapD inh result of `COC(=O)c1cc(Br)ccc1NC(=O)c1cc2ccccc2oc1=O` → 0.175

Other structures.
| molecule | AID504770 | Ba CapD inh |
| --- | --- | --- |
| CC12C(=O)N(c3ccc(C(=O)O)cc3)C(=O)C1C1C=CC2C1 (centres undefined) | -0.6 | -0.675 |
| c1ccc2c(c1)CCNC2CNCc1ccc2c(c1)OCO2 (centres undefined) | -0.6 | 0.42 |
| Cc1nc(-c2ccccc2)c(-c2ccccc2)[nH]1 | 0.15 | 63.3 |
| CC(C)(C)OC(=O)NCC1CCC(C(=O)NCc2cccs2)CC1 (centres undefined) | . | -0.96 |
| Cc1ccc(-c2nnc(NC(=O)C3CC3)s2)cc1 | 0.75 | 0.695 |
| Fc1ccc(C2C=C(c3ccc4c(c3)OCO4)Nc3ncnn32)cc1 (centres undefined) | . | 0.255 |
| CCC1COC(c2cccn2Cc2ccccc2)=N1 (centres undefined) | -0.3 | -0.365 |
| CCc1cc2c(SCC(=O)C(C#N)=C3N(C)c4ccccc4N3C)ncnc2s1 | -0.25 | . |
| O=C1C=C2N(c3ccccc3)CCOC2(O)c2ccccc21 (centres undefined) | -1.55 | -2.71 |
| CCOc1ccccc1C(=O)OCC(=O)NC1CC1 | -0.9 | . |
| CCOC(=O)C1=C(C)N(CCO)C(=O)NC1c1ccc(O)cc1 (centres undefined) | -0.3 | 0.205 |
| CC(C)n1c(=O)c2oc3ccccc3c2n(CC(=O)NCc2ccccc2)c1=O | -0.2 | 4.86 |
| C=C1SC(Nc2cc(Cl)cc(Cl)c2)=NC1(CC)CC | . | 0.08 |
| CC(C)N(C(=O)Cn1c(=N)sc2ccccc21)c1ccccc1 | -0.8 | 0.355 |
| COc1ccc(NC(=O)CN(C)C(C)C(=O)Nc2ccc(NC(C)=O)cc2)cc1 (centres undefined) | 1 | . |
| C/C(=N/NC(N)=S)c1ccc(Br)s1 | 0.1 | . |
| COc1nc(-c2ccccc2)ccc1-c1noc(C(C)C)n1 | 0.15 | . |
| O=C(C1CCCCC1)n1cnc2ccccc21 | -0.65 | 0.445 |
| O=c1[nH]cc(N=Cc2ccc3c(c2)OCO3)c(=O)[nH]1 | -0.8 | 0.315 |
| CN1C2C=C3C(C#N)=C(N)C(C#N)(C#N)C(c4ccccc4F)C3C1CC2 (centres undefined) | . | -0.165 |
| O=P(Cc1ccccc1)(c1ccccc1)N(Cc1cccs1)CC1CCCO1 (centres undefined) | -0.4 | 0.465 |
| COC(=O)C(NC(C)=O)(Nc1ccc(Br)cn1)C(F)(F)F (centres undefined) | . | 0.21 |
| CC(=O)Nc1ccc(NC(=O)C(C)OC(=O)C2CCN(C(=O)Nc3ccccc3)CC2)cc1 (centres undefined) | -0.1 | . |
| FC(F)(F)c1cnc(Oc2ccccc2)c(Cl)c1 | -1.4 | -0.005 |
| CCOC(=O)c1csc(N)n1 | -1.35 | -0.155 |
| CCOc1ccc(CNc2ccc(NC(=O)c3ccco3)cc2)cc1OCC | 0.5 | -0.41 |
| CCN(CC)C(=O)N1CCN(C)CC1 | 0.25 | 0.14&-0.065 |
| CC(=O)Nc1ccc(NC(=O)C(C)Sc2n[nH]c(=O)n2Cc2ccccc2)cc1 (centres undefined) | -1 | . |
| Cc1oc2cc3c(C(=O)N4CCN(C)CC4)c(C)oc3cc2c1C(=O)N1CCN(C)CC1 | -0.4 | 0.345 |
| O=C(c1ccccc1)N1CCc2c(F)c(F)c(F)c(F)c21 | . | -0.69 |
| Cc1ccc(OCc2nc(SCC(=O)N3CCc4ccccc43)n[nH]2)cc1 | -0.75 | . |
| O=S(=O)(c1ccc(NC(=S)NC2CCCCC2)cc1)N1CCOCC1 | -0.45 | -0.695 |
| O=S(=O)(Cc1ccccc1)N1CCN(Cc2ccco2)CC1 | -0.55 | . |
| COc1ccc(CCN2C(=O)CC(Nc3cc(C(=O)O)ccc3C)C2=O)cc1 (centres undefined) | 0.55 | . |
| COC(=O)c1ccc(NN)cc1 | 1.05 | 0.64 |

Assay outcomes as filed in PubChem.
